Source: PubChem BioAssay
HNF4A DNA FP – change in binding of human HNF4A to DNA, primary screen, biochemical, fluorescence polarization, FITC-DNA; 1 h; activity change, % at 10 µM; actives 0.3% (n = 360,000); AID 1224865, 2016; in the data active means activity change above about 30%, passing the limit was not always enough;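 further: controls were the assay level and a saturating level of protein; the project sought stronger binding though the title names inhibitors; some compounds called inactive have numbers as strong as hits; positive values seem to mean higher polarization but the record does not say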
B2AR ag – beta2AR agonists driving receptor internalization, primary screen, cell-based, FAP fluorogen, flow cytometry; Am2.2-beta2AR cells; reference of the scale not given here; actives 0.43% (n = 340,000); Beta-2 adrenergic receptor (Homo sapiens), P07550; AID 504454, 2011; response, % (concentration not given with the values);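 active means response above a set limit, near 3 SD of response in nonfluorescent compounds, cut at about 42% in these data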;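 further: stock transfer was 100 nL into about 11 µL; a reference agonist was the positive control; negative values mostly stem from fluorescent compounds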
LANA-H2B inh – blockers of LANA interaction with H2A/H2B – biochemical, FP readout, HTS, primary screen; Protein LANA1 (Human herpesvirus 8 type P (isolate GK18)), Q9QR71; cell-free LANA-H2A/H2B peptide, fluorescence polarization; inhibition, % (test concentration not listed); actives 0.6% (n = 320,000); AID 2629, 2010; in the data active means inhibition mostly above about 10%, no sharp cut-off; inactive means mostly below about 6.7%;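 further: stock transfer was 7.5 nL into about 10 µL; 0% = median of vehicle wells and 100% = median of positive control wells; one replicate is shown; the record names a cut of 25% in any replicate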
UCH37 inh – inhibitors of human UCH37 deubiquitinase, primary screen, biochemical, Ub-AMC cleavage, fluorescence; Ubiquitin carboxyl-terminal hydrolase isozyme L5 (Homo sapiens), Q9Y5K5; purified proteasome/UCH37; inhibition, % (concentration not given with the values); actives 0.33% (n = 330,000); AID 588478, 2011;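 active means mean of two replicates above 20%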;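 further: 0% = compound-free wells with enzyme and 100% = wells lacking proteasome; stock transfer was 100 nL into about 20 µL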
Target sequence (Q9Y5K5 whole entry, looked up): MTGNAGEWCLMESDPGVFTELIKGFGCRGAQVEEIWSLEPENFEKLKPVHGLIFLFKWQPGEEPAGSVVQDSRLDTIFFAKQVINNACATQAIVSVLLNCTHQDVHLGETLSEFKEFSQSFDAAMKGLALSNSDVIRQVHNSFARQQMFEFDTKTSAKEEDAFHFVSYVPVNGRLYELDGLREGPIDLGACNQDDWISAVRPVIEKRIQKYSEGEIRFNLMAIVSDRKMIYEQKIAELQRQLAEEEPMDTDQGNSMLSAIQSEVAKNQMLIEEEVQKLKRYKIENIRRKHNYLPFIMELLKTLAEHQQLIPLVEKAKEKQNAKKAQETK
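Material: Human UCH37 enzyme supplied as purified proteasome complex | Schedule: 30 min preincubation with enzyme, 25 min cleavage at room temperature | Detection: AMC fluorescence 355/460 nm | Measure: % inhibition of Ub-AMC cleavage fluorescence | Controls: Wells without proteasome as full block, compound-free enzyme plus substrate as uninhibited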
ALR H2O2 inh – inhibitors of human ALR sulfhydryl oxidase, primary screen, biochemical, H2O2 detection, HRP-luminol luminescence, single point. FAD-linked sulfhydryl oxidase ALR (Homo sapiens), P55789. purified ALR, DTT oxidation. inhibition, % (test concentration not listed). actives 3.8% (n = 290,000). AID 485317, 2010;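 active means mean and each replicate at 75% or more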;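 further: stock transfer was 7.5 nL into about 7.5 µL; 0% = neutral wells and 100% = wells with inactivated enzyme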
Target sequence (P55789 whole entry, looked up): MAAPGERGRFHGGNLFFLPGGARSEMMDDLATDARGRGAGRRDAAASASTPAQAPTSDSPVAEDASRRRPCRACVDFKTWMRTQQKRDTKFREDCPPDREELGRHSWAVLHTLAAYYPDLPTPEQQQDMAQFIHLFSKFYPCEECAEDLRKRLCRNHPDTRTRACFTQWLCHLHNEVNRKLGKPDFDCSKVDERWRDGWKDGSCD
Ecoli growth – E. coli growth inhibition, primary screen, OD600; Escherichia coli growth, 23 h; active compounds read low; OD600 absorbance (concentration not given with the values); actives 0.21% (n = 330,000);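 active means OD600 absorbance below the run mean of sample wells minus 3.6 SD, in any replicate, cut at about 0.56 in these data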;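 further: stock transfer was 300 nL into about 60 µL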
FGF22 binding – binders of human FGF22 protein, primary screen, FGF22 synaptogenesis inhibitor project, biophysical, thermal shift, single point; recombinant FGF22 thermal shift, SYPRO orange fluorescence; percent of sucrose octasulfate shift, DMSO zero; calls only at 9.99 µM; actives 1.5% (n = 340,000); Fibroblast growth factor 22 (Homo sapiens), Q9HCT0; AID 651658, 2012;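 active means melting point raised past a set limit in the mean and every replicate; three in four hits are not shown here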
Target sequence (Q9HCT0 whole entry, looked up): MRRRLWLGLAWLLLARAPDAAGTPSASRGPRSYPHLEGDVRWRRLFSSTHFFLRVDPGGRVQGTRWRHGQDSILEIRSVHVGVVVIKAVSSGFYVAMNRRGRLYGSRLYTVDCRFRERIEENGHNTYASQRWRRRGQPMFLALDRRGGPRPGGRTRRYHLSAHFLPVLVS
* marks the source's active call; other numbers are inactive results; i = inactive; / = no result given.

SMILES	HNF4A DNA FP	B2AR ag	LANA-H2B inh	UCH37 inh	ALR H2O2 inh	Ecoli growth	FGF22 binding
CCOc1ccc2[nH]c(=O)c(CN(CCO)C(=O)CC)cc2c1	-5.1	5	-1.3	-28	-8	0.69	/
COc1ccc(Cc2nnc(SCC(=O)Nc3ccc(C)c(Cl)c3)[nH]c2=O)cc1	1.1	2	-3.5	1.4	-4	0.67	i
Cc1cccc(COc2ccc(/C=N/NC(=O)c3nnn(-c4nonc4N)c3CN3CCCCC3)cc2)c1	1.1	5	-6.7	/	-19	/	i
CC1CC(C)CN(C(=O)C2CCCN(c3ncnc4c3nc3n4CCCCC3)C2)C1 (stereo unspecified)	3.0	-19	-1.6	1.1	-2	0.67	i
O=C(CSc1nnc(-c2ccccc2)n1Cc1ccccc1)N1CCOCC1	-1.4	-8	1.3	5.9	/	0.71	/
Cc1cc2sc3nc(=O)n(-c4ccccc4)c(=O)n3c2cc1C	2.8	4	3.3	3.7	0	0.65	i
CC(CC(=O)Nc1ccc(F)cc1F)S(=O)(=O)c1ccc2c(c1)NC(=O)CO2 (stereo unspecified)	-1.0	2	1.1	1.0	-9	0.7	i
Clc1ccc(CNC2CCCC2)c(Cl)c1	-0.4	1	5.0	2.7	-2	0.7	/
COc1ccc(NC(=O)Cc2nc3ccccc3[nH]2)cc1	0.1	-17	-0.3	2.0	8	0.69	/
COc1ccc(CN2CCOCCOCCOCCOCCOCC2)cc1	-0.2	-4	2.6	4.8	-1	0.71	i
OC1(C#CCN2CCOCC2)CCCCC1	3.1	0	0.5	1.9	-1	0.71	i
CN(Cc1ccc(Cl)cc1)C(=O)COC(=O)c1ccc(-c2ccc(O)cc2)cc1	-0.4	0	-0.3	-4.5	0	0.7	i
O=C(CSc1nc2ccccc2o1)NCC1CCCO1 (stereo unspecified)	0.8	14	0.2	1.4	18	0.63	i
COC(=O)CSc1nnc2n1C(C)(C)Cc1ccccc1-2	-0.2	4	-3.4	1.4	9	0.69	/
NC(=S)Nc1c(Cl)cccc1Cl	-1.4	5	-2.0	2.2	-7	0.65	i
CCN(CC)CCCN(Cc1cc2cc(OC)ccc2[nH]c1=O)C(=O)Nc1ccccc1	/	/	-6.6	-64	-6	0.69	/
N#CCn1cnc2sc(-c3ccccc3)cc2c1=O	4.7	-11	2.8	-0.9	-5	0.69	i
CCCCC(=O)Nc1ccccc1C(=O)N1CCOCC1	-2.7	9	-6.6	0.0	-6	0.71	/
Cc1ccccc1N1CC(=O)N(c2ccccc2C)CC1=O	-0.8	4	-2.2	-0.3	4	0.67	/
O=C(O)c1cnn(-c2nc(-c3cccc(F)c3)cs2)c1C(F)(F)F	2.7	1	1.1	-8.7	11	0.69	i
CCOC(=O)c1ccc(NS(=O)(=O)c2ccc3c(c2)n(C)c(=O)n3C)cc1	7.3	-15	-2.6	1.7	2	0.68	i
COc1ccc(-c2nc(NCCCN(C)C)c3ccccc3n2)cc1	-4.7	-3	-5.0	-9.7	7	0.66	i
C[C@H](CO)N1C[C@H](C)[C@@H](CN(C)S(=O)(=O)c2ccccc2)Oc2c(NC(=O)C3CCCCC3)cccc2C1=O	5.0	2	6.1	-0.5	-2	0.73	i
O=C(NCC1CCCO1)C(C(=O)c1ccccc1)n1cc(Cl)ccc1=O (stereo unspecified)	-1.1	-1	5.0	6.3	-46	0.72	/
CCSc1nnc(NC(=O)c2cccc3ccccc23)s1	0.2	3	4.0	-5.1	-4	0.72	i
O=C(CN1C(=O)C2C3C=CC(C3)C2C1=O)Nc1ccc(F)cc1 (stereo unspecified)	-1.9	10	-0.2	2.7	-11	0.74	i
O=C(CN1CCN(Cc2ccccc2)C1=O)NCCCN1CCOCC1	3.7	4	-2.7	7.3	-3	0.72	i
CC(C)OCCCNS(=O)(=O)c1ccc2ccccc2c1	-2.5	-3	1.8	0.3	-6	0.67	/
Cc1cccc(-n2c(CCc3ccccc3)nnc2SCC(=O)c2ccccc2)c1	-1.3	-2	2.5	2.8	6	0.65	/
CCCn1c(N)c(N(CCOC)C(=O)CSc2cc(C)c3cccc(C)c3n2)c(=O)[nH]c1=O	-1.8	-6	1.2	4.6	/	0.66	i
CN(C)CCn1cnc2c1c(=O)[nH]c(=O)n2Cc1ccccc1	1.8	1	8.4	4.7	-7	0.69	i
CCOCCCNC(=O)C(c1ccc(OC)cc1)N(Cc1ccc2c(c1)OCO2)C(=O)CNC(C)=O (stereo unspecified)	1.2	-10	2.0	-2.0	-1	0.72	/
Cc1ccccc1-c1nc(CS(=O)(=O)CC(=O)NCCCN2CCN(C)CC2)c(C)o1	-1.3	-6	2.7	2.1	-4	0.68	i
COCCn1c(-c2ccc3ccccc3c2)nc2c1c(=O)[nH]c(=O)n2CC(C)C	-0.6	-3	-4.9	-61	-5	0.71	i
O=C(c1cc([N+](=O)[O-])cc([N+](=O)[O-])c1)N(Cc1nnc(-c2ccccc2Cl)o1)C1CC1	3.0	-10	3.4	3.8	-176	0.71	i
O=C(c1ccco1)N1CCN(C(=O)c2cccs2)CC1	-12	0	-0.8	0.9	/	0.65	i
COc1cccc(NC(=S)N(Cc2cccc(Br)c2)CC2CCC(C(=O)O)CC2)c1 (stereo unspecified)	0.9	3	2.4	0.9	1	0.66	/
COc1cc2[nH]c(C(=O)N(C)C3CCS(=O)(=O)C3)cc2c(OC)c1OC (stereo unspecified)	-5.4	-1	2.6	-1.0	-14	0.69	i
CC(C)NCCCOc1ccc(Cl)cc1Br	0.3	10	-2.8	2.6	1	0.69	/
Cc1ccc(NC(=O)CC(C)c2ccccc2)cc1S(=O)(=O)N1CCOCC1 (stereo unspecified)	2.2	-3	5.6	2.0	-5	0.71	i
CCC(=O)c1cn(CC(=O)Nc2cccc(C)c2)c2ccccc12	0.4	0	-1.1	2.4	-2	0.7	i
COC(=O)c1ccccc1NC(=O)c1ccc(F)cc1	-0.2	-3	1.3	0.5	-2	0.7	i
C=CC[C@]12C=C(OC)C(=O)C(OC)=C1O[C@@H](c1ccc3c(c1)OCO3)[C@H]2C	0.2	-4	-2.8	5.6	-9	0.71	i
S=c1nccc(-c2cccs2)[nH]1	-0.3	-2	-3.6	8.1	99*	0.71	i
O=C(NCc1ccccn1)C1CCN(S(=O)(=O)c2cccs2)CC1	-1.1	1	-4.6	2.0	1	0.72	i
CC(=O)c1ccc2c(c1)N(C)c1ccccc1S2	0.5	-2	-1.9	-1.5	/	0.65	/
CC(C)Oc1ccc(C2CC(=O)N(c3ccc(C(=O)O)cc3)C2=O)cc1 (stereo unspecified)	1.8	2	-1.0	6.2	/	0.71	i
Cc1nn(C(C)C(=O)NCc2ccccc2Cl)c(=O)c2c1sc1ccccc12 (stereo unspecified)	1.9	4	2.6	0.0	/	0.71	/
CN(Cc1ccccc1)C(=O)CN(Cc1ccccc1)S(C)(=O)=O	5.7	-3	-0.2	-0.8	-2	0.69	/
COc1ccc(S(=O)(=O)Nc2cc3c4c(oc3c3ccccc23)CCCC4=O)cc1	0.3	-2	2.0	3.8	-13	0.75	/
COc1ccc(NC(=O)c2ccc(CN3CCc4ccccc4C3)cc2)cc1OC	2.5	6	4.1	5.0	-32	0.71	i
CN1C(=S)SC(C)(C)C1N(O)C(=O)Nc1ccc(Cl)cc1 (stereo unspecified)	-1.0	2	3.2	0.5	3	0.61	/
FC(F)Sc1ccc(NC(=S)NC(c2ccccc2)c2ccccc2)cc1	3.3	3	-16	4.4	-1	0.7	i
Cc1cccc(NC(=O)CCNC(=O)c2ccc(Br)cc2)c1C	1.1	3	3.6	2.4	-6	0.66	i
COC(=O)c1sc2nc3c(cc2c1N)CCCC3	0.7	-2	2.9	-67	10	0.72	i
CCc1nc(Nc2ccccc2O)c2oc3ccccc3c2n1	-2.5	2	-0.2	8.9	-5	0.71	i
CCCc1cc(=O)oc2cc(C)cc(OCC(=O)NC(Cc3ccc(Cl)cc3)C(=O)O)c12 (stereo unspecified)	1.2	-5	3.5	-83	-13	0.74	i
COc1ccc(N2CCN(C(=O)C3CCN(C(=O)c4ccc([N+](=O)[O-])cc4)CC3)CC2)cc1	0.7	4	-0.6	-0.1	32	0.71	/
CC(C)[C@@H](C(=O)NC1CC1)N1C(=O)N2CCc3c([nH]c4ccccc34)[C@@]2(C)C1=O	-1.4	-9	1.3	4.4	/	0.7	i
CC1CN(S(=O)(=O)c2ccc(CN3C(=O)c4cccnc4C3=O)s2)c2ccccc2O1 (stereo unspecified)	-0.3	-1	0.8	0.8	-3	0.72	i

Full records, looked up by structure. Values in the order: HNF4A DNA FP	B2AR ag	LANA-H2B inh	UCH37 inh	ALR H2O2 inh	Ecoli growth	FGF22 binding
Record of `COc1ccc(S(=O)(=O)Nc2cc3c4c(oc3c3ccccc23)CCCC4=O)cc1` → 0.3	-2	2.0	3.8	-13	0.75	/
Record of `S=c1nccc(-c2cccs2)[nH]1` → -0.3	-2	-3.6	8.1	99*	0.71	i
Record of `CC1CN(S(=O)(=O)c2ccc(CN3C(=O)c4cccnc4C3=O)s2)c2ccccc2O1` (stereo unspecified) → -0.3	-1	0.8	0.8	-3	0.72	i

The results go on.
SMILES	HNF4A DNA FP	B2AR ag	LANA-H2B inh	UCH37 inh	ALR H2O2 inh	Ecoli growth	FGF22 binding
NC(=O)c1cc[n+](Cc2ccc([N+](=O)[O-])cc2)cc1	-0.5	2	2.7	0.6	-33	0.69	i
Cc1ccc(Cl)cc1NC(=S)N1CCC(c2ccccc2)C1 (stereo unspecified)	-3.2	-6	2.2	0.0	1	0.66	i
O=C(O)c1ccc(NC(=O)C2C3CCC(C3)C2C(=O)O)cc1 (stereo unspecified)	0.3	-11	-5.6	2.8	-9	0.72	/
Cc1ccc(OCCn2c(NC(=O)c3ccco3)nc3ccccc32)cc1	4.7	-5	3.0	-11	-14	0.7	/
O=C(CCN1CCc2ccccc2C1)Nc1ccc(F)c(F)c1	3.3	-10	1.0	1.1	/	0.67	i
Cc1nc2nc(SCC(=O)NCCCN3CCCCCC3)nn2c(C)c1Cc1ccccc1Cl	21	-1	-3.1	-1.8	0	0.7	i
O=C(Nc1nnc(S(=O)(=O)N2CCOCC2)s1)c1ccc(Cl)cc1	-2.2	5	1.8	3.1	-2	0.66	i
COc1ccc(NC(=O)CN2C(=O)COc3ccc(S(=O)(=O)N4CCCCCC4)cc32)cc1	1.5	0	-2.2	4.2	-4	0.71	i
O=C1NC2(CCCCC2)N=C1c1ccccc1	0.8	/	2.0	1.5	-9	0.71	/
CCOC(=O)Cc1csc(NC(=O)c2ccc(Cl)nc2)n1	8.9	-6	-3.5	1.1	-4	0.62	/
Cc1cc2n(n1)C(c1ccco1)Nc1ccccc1-2 (stereo unspecified)	0.2	-7	-4.2	-19	41	0.71	/
CCc1ccc(C(C)NC(=O)Cc2ccc(F)cc2)cc1 (stereo unspecified)	-3.2	-1	-0.3	0.8	/	0.65	i
O=c1cc(COc2ncnc3ccccc23)nc2sccn12	-6.7	0	0.7	-1.0	3	0.64	i
O=c1cc(CN2CCN(Cc3ccccc3)CC2)c2cc3c(cc2o1)CCC3	-0.1	0	0.2	3.7	-5	0.67	i
COC(=O)C1CCN(C(=O)c2c(-c3ccccc3Cl)noc2C)CC1	1.2	11	-1.0	2.8	-17	0.72	/
Cc1ccc(S(=O)(=O)NCC(=O)NCC(=O)N(C)Cc2ccc3ccccc3c2)cc1C	4.1	1	1.5	1.6	-7	0.65	i
Cc1ccc(/C=N/Nc2cccc3cccnc23)c(O)c1	0.1	-13	1.5	/	-1	/	i
COc1ccc(-c2nnc(SCc3nc4ccccc4c(=O)[nH]3)o2)cc1	2.9	6	-2.8	-0.5	/	0.71	i

Only part of the results is shown; the hit share may differ from the screen's.
